# Bioassay records: PubChem, National Center for Advancing Translational Sciences (NCATS)
# Menin-MLL FL inh: menin-MLL binding inhibition, fluorescein peptide; Fluorescence polarization, fluorescein-MLL peptide displacement from menin; FP activity change, % at 61.4 µM; 290,000 tested, under 10 active; AID 1766; inconclusive = falling polarisation curve, or a change in total fluorescence; inactive = total fluorescence flat and polarisation flat or rising; no compound was filed as active; the % refers to the polarisation; negative = inhibition;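 also: % of control where 0% means no effect; inhibitors lower the polarisation; unlabelled MLL peptide was the positive control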
# D2 PAM: human D2 receptor positive allosteric modulation | P14416 | DiscoveRx D2 beta-arrestin cells, luminescence, 90 min; 100% = 57 uM dopamine signal | potentiation, % (concentration not given with the values) | 0.23% of 360,000 active | AID 624464; active = potentiation of 50% or more; inconclusive = 30% to 50%; inactive = 30% or less;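 also: compound concentration not given in the record; tested on top of an EC20 dose of dopamine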
#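 D2 cells co-treated with compound plus 50 nM dopamine (EC20) for 90 min at 37 deg C to detect potentiation. Beta-arrestin recruitment was read as enzyme-fragment luminescence after 1 h at ambient temperature. Full response was set by 57 uM dopamine.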
# TRPV1 potentiator: enhances activation of the human vanilloid receptor TRPV1; TRPV1-expressing cells, Fluo-8 calcium influx, capsaicin EC20 potentiation; host cell line not named in the record; control for the full effect not named in the record; potentiation, % at 8.33 µM; 0.02% of 320,000 active; active means potentiation above 80%; inconclusive means 30% to 80%; inactive means below 30%; also: 0% is about no effect
# Target sequence (Q8NER1 whole entry, looked up): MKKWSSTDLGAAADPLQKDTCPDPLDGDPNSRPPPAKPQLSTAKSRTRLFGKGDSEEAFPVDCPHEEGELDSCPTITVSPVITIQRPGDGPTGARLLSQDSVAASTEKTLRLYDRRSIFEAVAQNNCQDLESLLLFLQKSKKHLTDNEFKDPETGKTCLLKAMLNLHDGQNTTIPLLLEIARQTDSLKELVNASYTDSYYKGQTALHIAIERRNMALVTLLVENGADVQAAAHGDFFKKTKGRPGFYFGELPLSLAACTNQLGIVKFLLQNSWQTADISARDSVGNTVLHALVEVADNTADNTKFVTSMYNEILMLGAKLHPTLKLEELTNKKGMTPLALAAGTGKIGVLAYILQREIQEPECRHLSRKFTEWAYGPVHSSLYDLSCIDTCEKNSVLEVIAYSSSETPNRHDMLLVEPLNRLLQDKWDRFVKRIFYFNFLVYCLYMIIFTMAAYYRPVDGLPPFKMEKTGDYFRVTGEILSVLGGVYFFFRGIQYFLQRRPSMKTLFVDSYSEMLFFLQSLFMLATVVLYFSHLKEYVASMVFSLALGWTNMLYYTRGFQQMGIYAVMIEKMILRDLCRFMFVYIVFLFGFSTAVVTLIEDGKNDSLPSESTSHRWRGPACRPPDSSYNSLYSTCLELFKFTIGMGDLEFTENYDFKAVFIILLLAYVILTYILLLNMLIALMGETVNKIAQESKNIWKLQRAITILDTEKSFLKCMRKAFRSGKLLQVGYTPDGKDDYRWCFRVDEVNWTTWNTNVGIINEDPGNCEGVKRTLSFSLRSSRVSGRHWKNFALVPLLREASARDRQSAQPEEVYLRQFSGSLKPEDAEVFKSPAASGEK
#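 Cells expressing TRPV1 were dye-loaded with Fluo-8 and read kinetically: 10 s baseline, 3 min after compound (agonist portion), then 2 min after EC20 capsaicin (allosteric enhancer portion). Calcium-bound dye fluorescence at 480/520 nm.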
# Sfp inh: inhibitors of Bacillus subtilis Sfp phosphopantetheinyl transferase; Potency, µM, for inactives: max response, negative = inhibition, usual class: inhibitors; AID 1490; Biochemical Sfp PPTase activity, qHTS; 3.5% of 310,000 active; Q9F4F7; active = well fitted inhibition curve with a large enough effect; inconclusive = small, poorly fitted or top-dose-only effect, or another doubt; inactive = no such curve, though single readings can be large or run the other way;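 also: the enzyme is Sfp with the accession as filed and its product quenches rhodamine fluorescence; potency is read from the fitted curve at half-maximal effect; 0% = enzyme reaction without inhibitor and -100% = no enzyme wells; top concentration of the series not given in the record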
#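 Fluorescence-quenching assay with 15 nM Sfp, 5 uM rhodamine-CoA and 12.5 uM BHQ-2-labelled ybbR peptide in pH 7.6 Hepes/MgCl2 buffer. Enzyme was pre-incubated with compound for 15 min at room temperature. Rate was taken from the 30-min fluorescence change (525/598 nm).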
# gsp agonist: agonists of gsp mutant (McCune-Albright syndrome) | gsp mutant cells, cAMP HTRF, 30 min; control for the full effect not named in the record | Potency, µM (titrated, usually from 76.9 µM), for inactives: at the top dose activation (cAMP increase), most hits filed as activators | 0.13% of 340,000 active | AID 624287; active = well fitted activation curve with a large enough effect; inconclusive = small, poorly fitted or top-dose-only effect, or another doubt; inactive = no such curve, though single readings can be large or run the other way; cell line not stated here;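 also: phosphodiesterase inhibitor Ro 20-1724 added with compounds to block cAMP breakdown; potency is read from the fitted curve at half-maximal effect; nearly all actives have a fitted effect of over 60% in size; about a fifth of the inactives were tested at one dose only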
#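 Cells in DMEM/10% FBS with G418 were pretreated with compounds in DMSO plus […] (300 uM stock) for 30 min at 37C. cAMP was measured by HTRF (cAMP-d2 plus anti-cAMP antibody-K) after 30 min at room temperature.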
# gsp antag: antagonizes gsp, the McCune-Albright syndrome mutation. gsp-mutant cells, cAMP HTRF, 30 min; control for the full effect not named in the record. Potency, µM (highest dose often 76.9 µM), without a hit: top-dose activity change, negative = inhibition, usual class: inhibitors. 0.4% of 340,000 active; active = falling curve of any shape with a large fitted effect; inconclusive = falling curve, mostly with a smaller effect; inactive = flat or rising curve; cell line not stated here;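 also: intracellular cAMP measured with PDE inhibitor Ro 20-1724 present during compound exposure; potency is read from the fitted curve at half-maximal effect; % is scaled to controls: 0 for no effect and ±100 for the full control effect; nearly all actives have a fitted effect of over 65% in size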
#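 HTRF cAMP measurement after 30 min RT detection following 30 min, 37C compound treatment alongside […] (added as 300 uM solution) in G418-selected cells seeded at 2000/well and grown 16–24 h.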
# ClpP mod: qHTS Assay for Activators of ClpP; ATP-dependent Clp protease proteolytic subunit (Bacillus subtilis (strain 168)), P80244; purified B. subtilis ClpP, FRET peptide cleavage, 20 min; Potency, µM (titrated, usually from 57.5 µM), for the others: top-dose activity change, negative = active; 1.9% of 340,000 active; AID 651965, 2013; active = well fitted falling curve with a large enough effect; inconclusive = small, poorly fitted or top-dose-only effect; inactive = no such curve, though single readings can be large or run the other way; also: potency is read from the fitted curve at half-maximal effect; the source files actives as falling curves though it sought activators and does not explain the sign; nearly all actives have a fitted effect of over 65% in size; many hits overshoot -100%
# Target sequence (P80244 whole entry, looked up): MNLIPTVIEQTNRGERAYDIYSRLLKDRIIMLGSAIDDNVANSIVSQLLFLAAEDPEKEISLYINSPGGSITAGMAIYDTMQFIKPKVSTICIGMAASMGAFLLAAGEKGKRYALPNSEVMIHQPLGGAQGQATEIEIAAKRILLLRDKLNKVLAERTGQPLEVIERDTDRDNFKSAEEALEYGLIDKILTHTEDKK
#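 Buffer: 100 mM Tris/HCl pH8, 100 mM KCl, 0.05% low protease BSA, 2.5% glycerol, 0.01% Tween-20. ClpP 10 microg/mL final; 20 min RT; delta FRET normalized to ADEP and DMSO controls.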
# The depositor's hits bear a star; ? = inconclusive; . = not tested or not shown; & = joins results of further samples; [ ] = remark or other dose.
no.	SMILES	Menin-MLL FL inh	D2 PAM	TRPV1 potentiator	Sfp inh	gsp agonist	gsp antag	ClpP mod
1	CC[C@H](C)/C=C(C)/C=C/C1=CC2=C(Cl)C(=O)[C@](C)(OC(C)=O)C(=O)C2=CO1	.	-50	.	.	.	-16%	2.2%
2	O=C(O)c1ccc2c(c1)C1C(Cl)C(Sc3ccccc3[N+](=O)[O-])CC1C(c1cccc([N+](=O)[O-])c1)N2 (centres undefined)	-8.8	-4	2	?	-1%[15.4 µM]	-53%	.
3	CCCCn1c(O)c(C=NCCCn2ccnc2)c(=O)[nH]c1=O	11	-17	-5	-12%	15%	0%	-1.2%
4	O=[N+]([O-])c1cc([As](=O)(O)O)ccc1O	2.3	3	0	-2%&-6%	.	5%	1.4%
5	O=C(COc1ccc(Cl)cc1)N1CCN(Cc2ccc([N+](=O)[O-])cc2)CC1	-3.2	-6	-10	?	2%	-13%	2.1%
6	Cc1cc(OC(=O)N(C)C)nc2c1c(C)nn2C	-0.4	.	-7	9%	2%[15.4 µM]	0%	.
7	CC[C@H](OC(C)=O)C(C[C@H](C)N(C)C)(c1ccccc1)c1ccccc1	.	-16	.	.	.	2%	2.3%
8	O=C(CC1CCCCC1)c1c(O)c2ccccc2oc1=O	3.3	8	10	17%	-36%[inhibitor]	-10%	0.9%
9	COP(=O)(OC)Oc1ccc(C(O)C(Cl)(Cl)Cl)cc1 (centres undefined)	-7.1	-1	1	13%	-1%[15.4 µM]	13%	0.0%
10	COc1c(C)cc(C(=O)C2CCCN(Cc3ccccn3)C2)cc1C (centres undefined)	0.4	-15	-1	-5%	23%	-6%	.
11	CCOC(=O)c1c(C)[nH]c(C)c1C(=O)C(Cc1ccccc1)N(C)C (centres undefined)	3.0	-7	-5	7%	-4%	5%	-4.6%
12	FC(F)(F)c1ccc2c(c1)nnn2C1CCN(Cc2nnnn2Cc2ccccc2)CC1	2.5	-14	3	11%	29%	-13%	1.3%
13	COC(=O)C1=C(c2cccc(C#N)c2)C[C@@H]2CC[C@H]1N2C(=O)N1CCc2cc(OC)c(OC)cc2C1	.	0	5	.	.	-10%	-5.4%
14	Cc1occc1C(=O)N1CCC2(CC1)OCCO2	7.0	1	7	12%	-21%	17%	-1.9%
15	CCCCn1c(O)c(C(CC)=NCCCN(C)C)c(=O)[nH]c1=O	5.0	-1	-2	2%	0%	7%	1.3%
16	CC(C(=O)c1c[nH]c2ccccc12)N1CCOCC1 (centres undefined)	3.4	-7	20	15%	-41%[inhibitor]	5%	-4.7%
17	CCCCC/C=C\C/C=C\C/C=C\C/C=C\CCCC(=O)Nc1ccc(O)cc1	?	.	8	33%&-11%[activator]	.	.	.
18	COc1cc(CN2CCNCC2)cc(OC)c1OC	0.0	-10	-12	4%	-14%	9%	.
19	CC(C)(C)[C@]1(O)C[C@@H]2OC(=O)C[C@@]23C(=O)O[C@@H]2OC(=O)[C@@H](O)C213 (some centres undefined)	.	-6	.	.	.	-5%	-1.9%
20	CN1CCc2cccc(Cl)c2CC1	3.4	.	-6	.	.	1%	2.2%
21	Cc1cccc(N2C(=O)/C(=C/c3ccc(CN(CCC#N)S(C)(=O)=O)o3)C(=O)NC2=S)c1	?	-5	3	13µM*	7%	-23%	-2.7%
22	CCCC[N+]12C3C[C@H](C4[C@H](O)[C@]5(C[C@@H]41)c1ccccc1N(C)[C@@H]35)[C@H](CC)[C@H]2O (some centres undefined)	7.7	-12	5	2%	?	5%	-3.6%
23	Cc1cc2c(cc(C(=O)N3CCC(C(=O)NC4CCCC4)CC3)n2Cc2c(F)cccc2Cl)o1	-2.3	-6	-13	50µM*	-46%[inhibitor]	35µM*	1.1%
24	CC(C)(C)N1Cc2ccccc2C1=N	-1.1	8	-2	6%	15%	6%	0.8%
25	CCC(COC(=O)NC)NC(=O)Oc1cccc(C)c1 (centres undefined)	-1.0	-7	-5	16%	6%	11%	1.1%
26	Cn1cc(C(=O)OCC(=O)N2CCCC2)c2ccccc21	.	-16	5	.	-22%	2%	-1.9%
27	CCCCCCOc1ccc(CN2CCN(CC)CC2)cc1	3.7	-10	1	-1%	1%	5%	-2.0%
28	COc1ccccc1C1=NCc2nnc(C)n2-c2ccc(Cl)cc21	-1.1	-16	-1	6%	12%	15%	1.1%
29	COc1ccc(C2=NCC(=S)Nc3ccc(Cl)cc32)cc1Cl	-4.3	9	-7	18%	?	-10%	-0.8%
30	CCN(C(C)=O)c1cccc(-c2ccnc3c(C#N)cnn23)c1	-0.5&-1.1	.	-8	1%&20%	.	.	.
31	CCCN1C2CCCC1CC(NC(C)=O)C2 (centres undefined)	-2.2	1	1	0%	-10%	0%	-1.0%
32	CCOC(=O)c1cccc(C2=C(CNC(C)=O)[C@H]3CC[C@@H](C2)N3Cc2ccccc2)c1	.	-6	.	.	-69%[inhibitor]	.	-2.3%
33	O=C(Nc1cccc(OC(=O)N2CCOCC2)c1)N1CCOCC1	-0.6	16	1	11%	?	-1%	-4.8%
34	N#CC(Br)Br	.	-11	-2	.	.	5%	-0.7%
35	Cn1nc(N)c2c1N=P(N1CCOCC1)(N1CCOCC1)N=C2c1ccccc1	-3.4	5	-19	2%	-1%	4%	0.1%
36	COc1cc(C(=S)N2CCOCC2)cc(OC)c1OC(=O)Cc1ccccc1	-0.9	1	0	-4%	-8%[15.4 µM]	.	.
37	Cc1ccc2c(c1)=C/C(=C\c1c(O)[nH]c(=S)[nH]c1=O)C(=O)N=2	-0.3	.	27	7.1µM*	.	.	.
38	Cc1ccsc1C(=O)C1CCCN(Cc2ccccc2O)C1 (centres undefined)	2.5	-38	-7	8%	7%[15.4 µM]	.	.
39	C[C@]12CC[C@H](O)C[C@H]1CC[C@@H]1[C@@H]2C[C@@H](O)[C@]2(C)[C@@H](C3=CC(=O)OC3)CC[C@]12O	.	10	8	.	.	-3%	-2.5%
40	CCn1c(O)c(/C(C)=N/N2CCCCC2c2cccnc2)c(=O)[nH]c1=S (centres undefined)	.	2	-9	5%	-2%[15.4 µM]	8%	-2.4%
41	CN1C(=O)C(C2(C#N)CCCCC2)C(=O)N(C)C1=O	-4.4	-3	-9	10%	1%	-18%	-0.3%
42	O=C(COC(=O)Cc1ccccc1)Nc1ccc(SC(F)F)cc1	5.3	-5	-4	2%	1%	12%	1.8%
43	COC(=O)C1=C(c2cc3ccccc3s2)C[C@@H]2CC[C@H]1N2C(=O)N1CCOCC1	.	-9	.	.	36%	13%	-0.9%
44	Cc1cccc(CN2CCN(Cc3ccc(Cl)cc3)CC2)c1	-0.7	-47	?	?	-2%	-8%	1.3%
45	CN(C)CCN=Cc1c(O)n(Cc2ccc3c(c2)OCO3)c(=S)[nH]c1=O	1.5	0	-2	0%	1%	3%	.
46	O=C(Cc1ccccc1)OCCNC(=O)c1cccnc1	2.3	-5	-2	0%	-23%	-5%	-0.2%
47	CC1=CC(=O)NP(=O)(Oc2ccc3ccccc3c2)N1 (centres undefined)	1.0	0	28	7.9µM*	-3%	3%	4.6%
48	CC1CN=C(Nc2ccccc2)S1 (centres undefined)	-0.3	6	-19	7%	?	-4%	0.4%
49	COc1cc(/C=C2/C(=O)NC(=O)N(c3ccccc3)C2=O)ccc1O	?	11	-2	8.9µM*	-19%	-10%	-0.2%
50	COC(=O)C1=C(c2cc3ccccc3o2)C[C@@H]2CC[C@H]1N2C(=O)N1CCOCC1	.	-4	.	.	-95%[inhibitor]	8%	0.9%
51	Clc1ccccc1CNCCc1c[nH]c2ccccc12	.	-33	.	.	-18%	.	3.1%
52	O=C(NC(=O)N1CCC2(CC1)OCCO2)c1ccc(Cl)cc1	-0.2	-11	-5	11%	2%[15.4 µM]	9%	-3.3%
53	COC(=O)C1=C(c2c(C)noc2C)C[C@@H]2CC[C@H]1N2C(=O)NCCCOC(C)C	.	-5	-2	.	7%	10%	-1.0%
54	COC(=O)C1=C(c2cc3ccccc3s2)C[C@@H]2CC[C@H]1N2C	.	-26	5	.	-9%	3%	0.8%
55	CCOc1ccccc1OCCCCN1CCCC1	2.5	-36	-4	?	-1%	-4%	-7.6%
56	CCCC1=C(C(=O)OCC)C2(C(=O)Nc3ccc(C)cc32)C(C#N)=C(N)O1 (centres undefined)	11	.	-3	-8%	8%	3%	2.6%
57	CCOC(=O)c1c(N)n(CCN2CCCCC2)c2nc3ccccc3nc12	-2.5	-25	10	14%	-6%	2%	32µM*
58	O=C(CSc1ccccc1)N1CCC2(CC1)OCCO2	2.8	-1	-5	18%	-42%	-4%	0.1%
59	CCN(CC)C(=O)c1ccc(N2C(=O)C3CC=C(Cl)CC3C2=O)cc1 (centres undefined)	5.1	1	25	12%	15%	6%	0.4%
60	O=c1[nH]c(=O)n(-c2ccccc2F)c(O)c1/C=C1\C=Nc2ccccc21	14	-14	23	35µM*	-11%	-10%	1.3%

# The list goes on:
no.	SMILES	Menin-MLL FL inh	D2 PAM	TRPV1 potentiator	Sfp inh	gsp agonist	gsp antag	ClpP mod
61	COc1cccc(N2CCN(C(=O)C3CCN(S(=O)(=O)c4ccc5c(c4)oc(=O)n5C)CC3)CC2)c1	.	3	8	5%	48%	-22%	1.8%&0.3%
62	COc1ccc(NC(=O)c2cn(CCC#N)nc2-c2cccc([N+](=O)[O-])c2)cc1	-2.0	0	-6	6%	-3%[15.4 µM]	-4%	.
63	COc1cc2c(cc1O)C[C@H]1c3c(cc(O)c(OC)c3-2)CCN1C	3.1[24.8 µM]	-32	0	9%	.	-4%	4.4%
64	O=c1c2ccccc2nc(/C=C/c2ccccc2F)n1-c1ccccc1O	14	-5	2	-9%	-77%[inhibitor]	-23%	-9.5%
65	CC(C)=CCN1CC[C@@]2(C)c3cc(O)ccc3CC1C2C (some centres undefined)	.	-25	.	.	.	2%	1.7%
66	CCC(=Nc1ccccc1NC(C)=O)c1c(O)n(C)c(=O)n(C)c1=O	7.5	3	20	-5%	2%	2%	-0.2%
67	COc1ccccc1-n1c(O)c(C=NCCCn2ccnc2)c(=O)[nH]c1=O	0.0	0	7	17%	?	2%	0.6%
68	COc1cccc(N2C(=O)CC(=O)NC2=O)c1	6.4	-5	9	-22%	-3%	10%	-0.6%

# The list is partial (hit frequency here may not be typical).
